NS1 inh – blocks influenza NS1 protein function; S. cerevisiae slowed by influenza A NS1, growth recovery by OD600; Potency, µM (highest dose often 46.1 µM), for inactives: top-dose activity, positive = more growth; 270,000 tested, 0.4% active; active means well fitted rising curve with a large enough effect; inconclusive means small, poorly fitted or top-dose-only effect; inactive means no such curve, though single readings can be large or run the other way; further: nearly all actives have a fitted effect of over 50% in size
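Read-out: OD600 growth recovery of NS1-expressing budding yeast. Cells grown overnight at 30C in -URA glucose medium, washed, resuspended and diluted 1:100 in 2% galactose assay medium, pH 6.0. Same strain lacking NS1 served as positive control.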
2A StopGo – FMDV 2A StopGo reporter, luciferase signal | human cells with a luciferase reporter of 2A StopGo recoding; control for the full effect not named in the record | Potency, µM (series often up to 57.9 µM), without a hit: at the highest dose signal change, negative = less light | 410,000 tested, 1.2% active; active = well fitted falling curve with a large enough effect; inconclusive = small, poorly fitted or top-dose-only effect; inactive = no such curve, though single readings can be large or run the other way; tested in HEK293T cells; further: on the % scale 0 is the no-effect control and ±100 the full control effect; nearly all actives have a fitted effect of over 45% in size; luciferase light after 4 h
MARV entry inh – Marburg virus entry inhibition; Potency, µM (top dose mostly 37.8 µM), inactives show at the top dose activity change, negative = inhibition, usual class: inhibitors; Marburg virus pseudotyped entry inhibition, cell reporter; control for the full effect not named in the record; about a third of the inactives were read at about 46 µM; 300,000 tested, 1.8% active; AID 540276; active = well fitted inhibition curve with a large enough effect; inconclusive = small, poorly fitted or top-dose-only effect, or effect the other way; inactive = flat fitted curve, though single readings scatter; tested in HEK293 cells; about a fifth of its hits are not listed in these tables; further: on the % scale 0 is the no-effect control and ±100 the full control effect; luciferase read-out
SARS PLP yeast – inhibitors of SARS-CoV papain-like protease in yeast | S. cerevisiae expressing SARS-CoV PLpro, growth rescue; control for the full effect not named in the record | Potency, µM (doses to about 32.9 µM), inactives show top-dose activity, positive = growth rescue | 330,000 tested, 0.19% active | AID 485353; active means well fitted rising curve with a large enough effect; inconclusive means small, poorly fitted or top-dose-only effect; inactive means no such curve, though single readings can be large or run the other way; further: 0% is about no effect; nearly all actives have a fitted effect of over 55% in size; growth read by luminescence after 48 h
Lassa entry inh – inhibitors of Lassa virus binding or cell entry. Lassa virus pseudotype entry inhibition, cell reporter; control for the full effect not named in the record. Potency, µM (highest dose often 37.9 µM), for the others: at the top dose activity change, negative = inhibition, hits mostly inhibitors. 300,000 tested, 1.2% active. AID 540256; active means well fitted inhibition curve with a large enough effect; inconclusive means small, poorly fitted or top-dose-only effect, or effect the other way; inactive means flat fitted curve, though single readings scatter; tested in HEK293 cells; further: on the % scale 0 is the no-effect control and ±100 the full control effect; nearly all actives have a fitted effect of over 50% in size; luciferase read-out
Cruzain inh Det – cruzain (T. cruzi) inhibition with detergent; P25779; purified cruzain, Z-FR-AMC fluorescence, 0.01% Triton; Potency, µM, inactives show max response, negative = inhibition, hits mostly inhibitors; 200,000 tested, 0.43% active;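 further: plate controls were neutral wells for no effect and buffer without enzyme for full effect; nearly all actives have a fitted effect of over 40% in size; top concentration of the series not given in the record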
Target sequence (P25779 123-467 limits assumed): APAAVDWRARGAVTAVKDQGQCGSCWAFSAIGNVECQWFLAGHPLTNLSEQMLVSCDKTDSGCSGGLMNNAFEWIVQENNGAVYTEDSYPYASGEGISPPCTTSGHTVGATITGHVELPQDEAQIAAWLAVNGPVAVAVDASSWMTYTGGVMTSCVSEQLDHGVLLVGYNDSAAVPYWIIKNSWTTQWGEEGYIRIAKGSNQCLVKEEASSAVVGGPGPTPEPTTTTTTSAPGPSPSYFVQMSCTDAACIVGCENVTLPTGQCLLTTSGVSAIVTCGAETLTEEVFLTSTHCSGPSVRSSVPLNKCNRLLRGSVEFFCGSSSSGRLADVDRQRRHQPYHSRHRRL
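Z-FR-AMC hydrolysis (2 uM substrate) by cruzain (1.5 nM) monitored kinetically at ex 360/em 450 nm after 15 min room-temperature compound exposure; 0.01% Triton X-100, pH 5.5, 5 mM DTT.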
Cruzain noTriton – inhibitors of Trypanosoma cruzi cruzain without detergent | P25779 | purified cruzain, Z-FR-AMC fluorescence, no detergent | Potency, µM, for the others: max response, negative = inhibition, usual class: inhibitors | 200,000 tested, 2.3% active | AID 1476;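 further: plate controls were enzyme without inhibitor for no effect and buffer without enzyme for full effect; nearly all actives have a fitted effect of over 40% in size; top concentration of the series not given in the record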
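Detergent-free condition (0.00005% Triton X-100) in acetate buffer pH 5.5 with DTT. 1.5 nM enzyme and compound were pre-mixed 15 min, then 2 uM Z-FR-AMC substrate added; reaction progress from fluorescence change between first and third reads (60 s).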
RE007 growth inh – less growth of the S. pombe RE007 Vpr strain. S. pombe RE007 Vpr strain, BacTiter-Glo ATP luminescence, 24 h; control for the full effect not named in the record. Potency, µM (series often up to 92.2 µM), without a hit: at the highest dose activity change, negative = less growth. 360,000 tested, 0.21% active. AID 651644; active = well fitted falling curve with a large enough effect; inconclusive = small, poorly fitted or top-dose-only effect; inactive = no such curve, though single readings can be large or run the other way;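 further: on the % scale 0 is the no-effect control and ±100 the full control effect; nearly all actives have a fitted effect of over 50% in size; the assay follows cell death caused by Vpr and the record does not say whether a fall means rescue or toxicity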
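Fission yeast RE007 carrying one integrated HIV-1 vpr copy, seeded at OD 0.01 in PMG+AL medium with 23 nL pinned compound. Grown 24 h at 30 degrees; viability read by BacTiter-Glo luminescence after 5 min.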
* hit, by the source's call; ? = inconclusive; / = not tested or not shown; [ ] = dose if it differs, or a comment. Unless noted, the call rests on the fitted dose curve; in most records, active means well fitted curve in the direction sought with a large enough effect; inconclusive means small, poorly fitted or top-dose-only effect, or another doubt; inactive means no such curve, though single readings can be large; an effect the other way counts as inactive or inconclusive. Potency means the concentration at half of the fitted maximal effect.

SMILES	NS1 inh	2A StopGo	MARV entry inh	SARS PLP yeast	Lassa entry inh	Cruzain inh Det	Cruzain noTriton	RE007 growth inh
C=CCN1C(=O)N(/C=C/C)c2cccc3cccc1c23	-35.3%	-9.9%	-3.3%	26.5%	-13.1%	-4.4%	-0.5%	-12.4%
CC1=CC(=C2C(=O)NC(=S)NC2=O)C=C(C(F)(F)F)N1Cc1ccccc1	/	0.0%	/	0.1%	?	/	/	-0.7%
Cc1ccc(C)c(N2CC(C(=O)OCC(=O)Nc3cc(C)on3)CC2=O)c1 (stereo unspecified)	0.9%	-2.2%	-22.5%[46.1 µM]	3.5%	11.6%	/	/	-15.2%
COc1ccc(CCN2C(=NC(=O)CCC(=O)O)SC3CS(=O)(=O)CC32)cc1 (stereo unspecified)	-9.8%	/	8.3%	12.3%	14.4%	4.3%	-0.3%	2.6%
Cc1sc2nc(SCC(=O)N(C)Cc3ccccc3)n(-c3ccccc3)c(=O)c2c1C	16.6%	-7.9%	9.7%[46.1 µM]	2.3%	?	-0.4%	-17.6%	-3.0%
CCOc1ccc2nc(N3C(=O)/C(=C/c4ccc(Cl)cc4)NC3=S)sc2c1	1.5%	19.5%	-5.1%	-2.8%	27.6%	-5.7%	?	-9.4%
Cc1ccccc1Sc1c(C#N)c(-c2ccccc2)nn1C	-6.8%	-6.0%	-20.4%	-19.6%	0.8%	-4.3%	-7.6%	10.0%
COc1cc2c(cc1OC)CN(C1CCCN(Cc3cc(Cl)ccc3O)C1)CC2 (stereo unspecified)	-9.1%	?	/	3.4%	/	/	/	-8.6%
CCN(C(=O)COC(=O)c1ccc(C)c(S(=O)(=O)N2CCCCC2)c1)C1CCS(=O)(=O)C1 (stereo unspecified)	/	-14.6%	4.9%	-1.9%	-16.1%	/	/	-20.6%
Cc1sc2nc(SCC(=O)N(CCO)CCO)nc(N)c2c1C	3.0%	39.3%[activator]	12.1%[46.1 µM]	10.5%	17.9%[46.1 µM]	/	/	10.0%
COc1ccc2c(c1)c(=O)oc1cc(OCC(=O)NC3CCCCC3)ccc12	0.8%	9.4%	/	0.1%	?	-2.9%	?	2.8%
CCC1CCCCN1S(=O)(=O)c1ccc([N+](=O)[O-])cc1 (stereo unspecified)	17.1%	-27.3%	/	2.3%	/	/	/	17.4%
CC(C)CCNC(=O)C1CCC(Cn2c(=O)c3sccc3n(CC(=O)NC(C)C)c2=O)CC1 (stereo unspecified)	/	4.1%	/	/	17.9%[46.1 µM]	-0.5%	-0.6%	/
O=C(O)c1ccc(OCCn2ccnc2)cc1	8.6%	-17.5%	/	1.0%	/	1.8%	-1.3%	7.9%[18.4 µM]
Cc1cc([N+](=O)[O-])nn1CC(=O)N/N=C/c1ccccc1O	-2.4%	44.1%[activator]	/	0.5%	/	/	/	-1.2%
Cc1ccc(C)c(OCCSc2nc3ccccc3n2CC(=O)N2CCOCC2)c1	/	-11.1%	-3.4%[46.1 µM]	/	0.1%[46.1 µM]	-3.2%	-8.4%	/
Cc1cccc(NC(=O)c2ccccn2)c1C	-5.7%	56.0%[activator]	?	0.1%	?	-8.0%	-5.1%	?
Cc1c(C)c2ccc(OC(C)C(=O)N3C[C@H]4C[C@@H](C3)c3cccc(=O)n3C4)c(C)c2oc1=O (stereo partly specified)	6.7%	-4.1%	/	4.2%	/	/	/	0.5%
COc1cccc(NC(=O)Nc2ccc3snnc3c2)c1	/	13.4%	?	/	22.6%[46.1 µM]	-12.9%	-8.0%	/
O=[N+]([O-])c1ccc(N2CCCC2)cc1NC1CC1	-7.5%	-3.8%	?	-8.8%	12.9%	-10.6%	-8.4%	2.3%
COc1cccc(NC(=O)CNC(=O)N2CC(=O)Nc3ccccc32)c1	-2.6%	29.8%	/	3.5%	/	/	/	-0.1%
O=C(O)c1ccccc1-c1c2ccc(=O)cc-2oc2cc(O)ccc12	/	/	35.3µM*	/	28.1µM*	-14.2%	?	/
CSc1nnc(Cc2sc(-c3ccccc3)nc2-c2ccccc2)o1	0.1%	-5.5%	-7.4%	-5.4%	-2.0%	-3.6%	12.0%	7.4%
COc1ccc(CC(C(=O)Nc2cc(C)ccc2C)/C(N)=N/O)cc1 (stereo unspecified)	-0.8%	-12.4%	-4.2%	-2.7%	-6.1%	2.1%	-9.3%	-6.6%
CCc1nc2sc(C)c(C)c2c(=O)n1CCO	0.2%	-3.8%	7.5%	1.8%	-16.6%	1.8%	-27.1%	-5.1%
CCN(CC)S(=O)(=O)c1cc(C(=O)OCC(=O)NC2CCCc3ccccc32)ccc1C (stereo unspecified)	16.7%	-2.6%	8.2%	-6.4%	5.1%	-9.8%	-15.6%	2.8%
Cc1ccc(-c2nc(CN(CC3CCC3)CC3CCCO3)c(C)o2)s1 (stereo unspecified)	-0.6%	-12.2%	?	-2.3%	-17.0%[46.1 µM]	/	/	-15.5%
CCCN1CCN(CCCNC(=O)C2CCN(c3nnc(-n4cccc4)s3)CC2)CC1	1.8%	-0.2%	-2.0%	-9.0%	2.8%	-10.2%	-5.0%	-7.6%
COc1ccc(CCNC(=O)Cn2c(=O)oc3cc(Cl)ccc32)cc1OC	-1.6%	-21.0%	/	2.2%	/	/	/	15.0%
O=S1(=O)C=C(SCCN2CCCC2)c2ccccc21	4.4%	-7.1%	-26.1%	-1.0%	-2.2%	-2.0%	2.4%	0.0%
Cc1cc(C)c2c(n1)sc1c(=O)[nH]c(SCc3ccccc3)nc12	6.7%	-17.4%	0.0%	0.7%	7.3%	0.1%	?	8.1%
Cc1cc(Cl)ccc1NC(=S)NCCc1ccc(S(N)(=O)=O)cc1	/	-29.8%	?	/	-18.0%	/	/	4.7%
Cc1c(N)cccc1Cl	/	-18.0%	/	/	/	0.2%	-6.3%	6.2%
CC(C)COc1ccc(Nc2ncnc3ccc(Br)cc23)cc1	/	0.0%	0.7%[46.1 µM]	/	9.2%[46.1 µM]	-3.0%	-9.1%	/
CC(Cc1cccs1)NCc1ccccc1 (stereo unspecified)	/	-8.1%	5.7%	2.8%	23.4%	/	/	-6.4%
COc1cc(C2NC(=O)N(C)C3=C2C(=O)N(c2cccc(Cl)c2)C3)ccc1O (stereo unspecified)	/	-21.2%	-4.1%[46.1 µM]	/	-0.4%[46.1 µM]	-8.8%	22.6%	/
CC1=C(C(N)=O)C(c2ccc(Br)cc2)n2nc(CCCO)nc2N1 (stereo unspecified)	0.9%	-8.2%	/	1.3%	/	/	/	5.1%
O=C(Cc1ccc(Br)cc1)Nc1ccc(S(=O)(=O)Nc2ncccn2)cc1	-7.8%	-1.2%	0.1%	-5.2%	-1.4%	/	/	-14.3%
CC1C/C(=N/NC(=O)c2ccc(CSc3nc4ccccc4[nH]3)cc2)CC(C)(C)C1 (stereo unspecified)	?	3.5%	10.1%	6.3%	?	-1.3%	-3.8%	-4.4%
C=CCNc1nc(-c2ccc(OC)cc2OC)cs1	-47.3%	39.6%[activator]	?	5.4%	10.0%	-3.8%	7.0%	-23.6%
COc1ccc(S(=O)(=O)N2CCCCCC2)cc1C(=O)OC(C)C(N)=O (stereo unspecified)	-3.8%	-4.8%	-4.4%[46.1 µM]	0.7%	-0.5%	/	/	9.5%
CC(C)CC(COCc1ccc(F)cc1)N1CCN(C(=O)c2cccc(C(F)(F)F)c2)CCC1=O (stereo unspecified)	-13.9%	-21.8%	?	3.2%	20.6µM*	-4.8%	?	-8.1%
CN(C)c1ccc(CNCCC2CCOC(C)(C)C2)cc1 (stereo unspecified)	-8.6%	/	0.5%	3.3%	/	1.7%	-0.1%	/
COc1ccc(CNC(=O)N2CCN(c3ccc(F)cc3)CC2)cc1	-10.9%	-20.1%	-8.3%	1.3%	-13.5%	/	/	33.5%
CC(NC(=O)Cc1ccccc1)c1ccc(F)cc1 (stereo unspecified)	2.9%	9.8%	?	-10.3%	3.7%	-1.2%	0.9%	11.8%
CCOC(=O)C1CCN(CC(O)COCc2cccs2)CC1 (stereo unspecified)	/	-3.4%	-20.4%[46.1 µM]	3.8%	13.5%[46.1 µM]	/	/	-3.6%
CC(C)(C)NC(=O)CSc1nnc(NC(=O)CCc2ccccc2)s1	12.1%	-20.2%	/	20.1%	/	/	/	6.7%
Cc1ccc(OCC(=O)NCC(c2ccc(Cl)cc2)N2CCOCC2)cc1C (stereo unspecified)	/	?	5.6%[46.1 µM]	/	-2.3%[46.1 µM]	-3.9%	?	/
CCc1ccc(CN(C)C(=O)c2cc(COc3ccc(-n4cncn4)cc3)on2)cc1	-0.5%	-19.8%	/	7.1%	/	/	/	17.4%
Cc1ccc(C(c2sc3nc(C)nn3c2O)N2CCN(c3ccccc3)CC2)cc1 (stereo unspecified)	1.0%	22.1%	20.2%[46.1 µM]	3.5%	5.4%	-1.5%	?	1.8%
CCc1nnc(SCC(=O)NC2CCCCC2)nc1CC	-1.6%	-13.2%	-13.1%	-0.9%	10.0%	2.2%	-7.3%	5.9%
O=C(N/N=C/c1ccc2ncccc2c1)c1ccco1	/	-77.1%	1.26µM*	-14.2%	2.51µM*	/	/	-14.4%
COc1ccc(Oc2nc3c(c(=O)n(C)c(=O)n3C)n2C)cc1	7.2%	-9.9%	/	2.8%	/	/	/	6.8%
O=C(Nc1ccc(Cl)c(Cl)c1)N1CCSCC1	-3.9%	40.5%[activator]	29.4%	11.2%	9.9%	-6.0%	9.7%	8.6%
CC(C)=CCCC(C)CN1CCC(n2nccc2NC(=O)C2CCCC2)CC1 (stereo unspecified)	6.0%	-20.2%	?	-11.0%	?	/	/	-5.4%
CC(=O)Oc1ccc(C(=O)Nc2cccc(C(=O)NC(C)(C)C)c2)cc1	/	-6.2%	16.0%[46.1 µM]	1.4%	-10.8%	/	/	6.2%
